# Bioassay records: PubChem, National Center for Advancing Translational Sciences (NCATS)
# TRPML1 ag: human mucolipin-1 channel agonism; hit rate 0.12% among 410,000; TRPML1-expressing cells, Ca2+ dye fluorescence, FDSS; host cell line not named in the record; reference of the full effect not given here; activation, % (test concentration not listed); Q9GZU1; in the data active = activation above about 50%; inconclusive = about 30% to 50%; inactive = below about 30%; also: 0% is about no effect; the text of the record puts the active cut at 80%
# Target sequence (Q9GZU1 whole entry, looked up): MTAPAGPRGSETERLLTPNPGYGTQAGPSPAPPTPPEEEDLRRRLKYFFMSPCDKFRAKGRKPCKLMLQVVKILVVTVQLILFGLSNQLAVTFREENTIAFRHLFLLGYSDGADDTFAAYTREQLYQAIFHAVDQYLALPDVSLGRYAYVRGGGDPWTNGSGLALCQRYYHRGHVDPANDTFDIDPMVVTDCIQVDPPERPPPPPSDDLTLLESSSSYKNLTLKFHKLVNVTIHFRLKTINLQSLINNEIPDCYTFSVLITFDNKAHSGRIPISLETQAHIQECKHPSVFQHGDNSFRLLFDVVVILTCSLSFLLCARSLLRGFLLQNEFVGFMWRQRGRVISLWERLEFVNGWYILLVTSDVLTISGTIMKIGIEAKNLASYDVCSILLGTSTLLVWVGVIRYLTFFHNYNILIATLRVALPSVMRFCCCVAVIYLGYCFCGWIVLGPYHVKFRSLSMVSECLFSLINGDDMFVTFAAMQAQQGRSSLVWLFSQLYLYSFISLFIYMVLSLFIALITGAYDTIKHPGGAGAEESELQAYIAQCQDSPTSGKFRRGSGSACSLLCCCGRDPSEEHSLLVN
#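 Kinetic FDSS Ca2+ read in Tet-induced TRPML1-DL cells (ABD Ca8 dye plus quencher, 45-90 min RT loading): baseline, then compound, then 110 s agonist window; EC80 agonist 54-4 at 4uM final added afterwards for a 110 s antagonist window.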
# Menin-MLL FL inh: menin-MLL binding inhibition, fluorescein peptide. Fluorescence polarization, fluorescein-MLL peptide displacement from menin. FP activity change, % at 61.4 µM. 290,000 tested, under 10 active. AID 1766; inconclusive = falling polarisation curve, or a change in total fluorescence; inactive = total fluorescence flat and polarisation flat or rising; no compound was filed as active; the % refers to the polarisation; negative = inhibition;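 also: % of control where 0% means no effect; inhibitors lower the polarisation; unlabelled MLL peptide was the positive control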
# gsp agonist: gsp mutant agonism; gsp mutant cells, cAMP HTRF, 30 min; control for the full effect not named in the record; Potency, µM (highest dose often 76.9 µM), for inactives: at the top dose activation (cAMP increase), usual class: activators; hit rate 0.13% among 340,000; AID 624287; active = well fitted activation curve with a large enough effect; inconclusive = small, poorly fitted or top-dose-only effect, or another doubt; inactive = no such curve, though single readings can be large or run the other way; cell line not stated here;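 also: phosphodiesterase inhibitor Ro 20-1724 added with compounds to block cAMP breakdown; potency is read from the fitted curve at half-maximal effect; nearly all actives have a fitted effect of over 60% in size; about a fifth of the inactives were tested at one dose only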
#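 Cells stably selected in G418 were plated at 2000/well, grown 16-24 hr, then given compounds in DMSO with the PDE inhibitor […] (300 uM solution added) for 30 min at 37C; cAMP was read by HTRF.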
# gsp antag: gsp mutant antagonism | gsp-mutant cells, cAMP HTRF, 30 min; control for the full effect not named in the record | Potency, µM (series often up to 76.9 µM), for the others: top-dose activity change, negative = inhibition, hits mostly inhibitors | hit rate 0.4% among 340,000 | AID 624288; active = falling curve of any shape with a large fitted effect; inconclusive = falling curve, mostly with a smaller effect; inactive = flat or rising curve; cell line not stated here;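 also: intracellular cAMP measured with PDE inhibitor Ro 20-1724 present during compound exposure; potency is read from the fitted curve at half-maximal effect; % is scaled to controls: 0 for no effect and ±100 for the full control effect; nearly all actives have a fitted effect of over 65% in size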
#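 Cells, 2000/well, grown 16–24 h in DMEM 10% FBS with 0.5 mg/ml G418, then compounds plus […] (300 uM addition stock), 30 min at 37C. cAMP read by HTRF (cAMP-d2 and anti-cAMP antibody-K in lysis buffer) after 30 min RT.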
# ClpP mod: qHTS Assay for Activators of ClpP. hit rate 1.9% among 340,000. ATP-dependent Clp protease proteolytic subunit (Bacillus subtilis (strain 168)), P80244. purified B. subtilis ClpP, FRET peptide cleavage, 20 min. Potency, µM (titrated, usually from 57.5 µM), without a hit: at the highest dose activity change, negative = active; active = well fitted falling curve with a large enough effect; inconclusive = small, poorly fitted or top-dose-only effect; inactive = no such curve, though single readings can be large or run the other way; also: potency is read from the fitted curve at half-maximal effect; the source files actives as falling curves though it sought activators and does not explain the sign; nearly all actives have a fitted effect of over 65% in size; many hits overshoot -100%
# Target sequence (P80244 whole entry, looked up): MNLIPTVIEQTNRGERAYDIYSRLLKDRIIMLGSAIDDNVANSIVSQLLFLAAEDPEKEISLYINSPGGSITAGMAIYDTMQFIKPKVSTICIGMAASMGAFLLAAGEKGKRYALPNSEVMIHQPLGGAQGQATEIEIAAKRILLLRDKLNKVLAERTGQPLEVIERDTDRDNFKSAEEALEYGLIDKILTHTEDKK
#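 FRET quenching reversal measured ClpP activation: 10 microg/mL B. subtilis ClpP at pH 8 with the FRET-FV decapeptide, read at 430 nm after 320 nm excitation. The 20-min minus 0-min signal was scaled between DMSO/no-enzyme wells and ADEP (5.8 microM final).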
# TRPML1 inh: blocks the human TRPML1 channel | Q9GZU1 | TRPML1-inducible cells, Ca2+ dye fluorescence, FDSS; stronger effect = lower value; inhibition of EC80 agonist-evoked calcium signal | activity change, negative = inhibition, % (no concentration beside the values) | hit rate 0.02% among 390,000 | AID 624415; in the data active means activity change below about -50%; inconclusive means about -30% to -50%; inactive means above about -30%;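 also: stimulus is agonist 54-4 at its EC80 concentration; % is scaled to controls: 0 for no effect and ±100 for the full control effect; compound concentration not given in the record; the text of the record puts the active cut at -80%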
#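 Tet-induced TRPML1-DL cells loaded with Ca8 no-wash calcium dye were read kinetically on FDSS. Compound addition was followed by EC80 agonist 54-4 (4 uM final); inhibition was read over 110 s.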
# Starred values were filed as active, the others as inactive; ? = inconclusive; . = no result given; & = joins results of further samples; [ ] = remark or other dose.
SMILES,TRPML1 ag,Menin-MLL FL inh,gsp agonist,gsp antag,ClpP mod,TRPML1 inh
Cc1cc(/C(O)=C2\C(=O)C(=O)N(CCN(C)C)C2c2ccncc2)ccc1OCc1ccccc1 (stereo unspecified),0.0,0.0,10.5%,0.8%,?,-5.8
N#Cc1c(=O)c2nc(NCc3ccccc3)ncc2n2ccccc12,-0.9,1.5,?,18.3%,-18.3%,-4.0
C[C@@H]1CN([C@H](C)CO)C(=O)CCCn2nncc2CO[C@H]1CN(C)Cc1ccccc1,13.4,.,-28.3%,.,-0.6%,-3.0
O=C1CN(C(=O)COC(=O)c2oc3ccccc3c2COc2ccccc2)c2ccccc2N1,0.3,-0.9,-2.3%,-5.9%,-7.2%,21.4
O=C(O)CC(NC(=O)CC(c1ccccc1)c1ccccc1)c1cccc([N+](=O)[O-])c1 (stereo unspecified),-0.2,0.7,-1.1%,4.5%,2.5%,8.8
O=C(Cn1nc(Cc2cccnc2)c2ccccc2c1=O)Nc1ccc(F)c(Cl)c1,-0.5,.,.,.,-1.4%,-4.5
COc1ccc(Sc2ncnc3onc(C)c23)cc1,1.0,-0.6,27.5%,-0.3%,-2.5%,42.9
Cc1ccccc1N(C)S(=O)(=O)c1nnc(NC(=O)c2ccco2)s1,0.1&3.9,14.6,-1.5%,-7.9%,-7.3%&-1.2%,12.5&-10.9
O=C(CC1C(=O)NCCN1C(=O)c1ccc(Cl)cc1)Nc1ccc(F)cc1 (stereo unspecified),0.0,.,-19.3%,8.0%,31.6µM*,-3.5
Nc1ccccc1SCc1csc(-c2ccc(Cl)cc2)n1,0.0,-1.6,33.6%,-28.5%,-1.1%,66.1
CCOCCCNC(=O)C(c1ccc(C)cc1)N(Cc1ccc2c(c1)OCO2)C(=O)c1ccccn1 (stereo unspecified),-0.4,0.5,-20.7%[15.4 µM],-5.4%,0.7%,6.3
Cc1cccc(OCC(=O)Nc2ccc3nc(C)sc3c2)c1,0.0,?,-66.9%[inhibitor],-3.9%,-2.1%,-15.2
O=[N+]([O-])c1ccccc1S(=O)(=O)N1CCN(c2ccccn2)CC1,-0.6,-6.7,-39.3%[inhibitor],-4.1%,2.3%,-0.3
CC1N=C2c3ccccc3N=C(SCC(=O)NCCc3ccccc3)N2C1=O (stereo unspecified),-0.2,.,.,.,4.1%,18.7
CC(C)c1ccc(C(CC(=O)c2ccc(Cl)cc2)C(=O)O)cc1 (stereo unspecified),2.4,6.4,29.9%,-2.9%,-0.3%,1.6
CC(C)(CNC(=O)c1sc2cc(Cl)ccc2c1Cl)N1CCOCC1,-0.9,.,-18.4%,-21.0%,0.7%,18.6
Cc1cccc(C)c1OCc1n[nH]c(=S)o1,1.3,2.2,-1.9%,-15.6%,-3.9%,17.3
COCCN(C(=O)COC(=O)c1cc(C)n(-c2ccccc2)c1C)c1c(N)n(Cc2ccccc2)c(=O)[nH]c1=O,-0.5,.,-27.4%,1.8%,-2.8%,8.4
O=C(Nc1cc(Cl)cc(Cl)c1)c1ccno1,2.8,2.2,-53.5%[inhibitor],5.4%,1.0%,8.8
COc1cc(C(=O)Nc2nc(-c3ccc(C)cc3)cs2)ccc1OCC(=O)N1CCOCC1,0.5,1.4,-1.6%,35.8%[activator],36.7%,41.0
CCCCc1ccc(S(=O)(=O)NC(=O)C2(C)CCN2C(=O)CC2CC2)cc1 (stereo unspecified),-0.7,.,.,.,-2.4%,-10.3
CC(CCc1ccccc1)NC(=O)CSc1ccccc1 (stereo unspecified),2.1,2.8,-8.5%,5.3%,-1.8%,27.7
Cc1nn(C)cc1N1C(=O)c2cccc3c(N)ccc(c23)C1=O,66.8*,?,-8.7%[15.4 µM],-15.9%,.,-13.2
O=C(NCc1ccc(F)cc1)c1ccc(CNc2c(N3CCOCC3)c(=O)c2=O)cc1,1.3,-1.3,8.1%[15.4 µM],-6.1%,.,4.0
O=C(CSc1ncccc1-c1nc2ccccc2[nH]1)N1CCc2ccccc21,-0.7,2.3,0.2%[15.4 µM],4.8%,?,29.1
CN(CC(=O)NCCCN1CCOCC1)S(=O)(=O)c1cc(Cl)ccc1Cl,0.0,.,17.2%,6.4%,-1.6%,-11.7
CNc1oc(-c2ccc(Cl)cc2)nc1C#N,0.1,-2.5,-10.0%,10.2%,-4.4%,21.6
Cc1c(-c2ccc(OCCN3CCCCC3)cc2)c(=O)oc2ccc3ccccc3c12,0.4,.,-60.5%[inhibitor],.,-11.5%,15.2
N#Cc1nc(-c2ccc(COc3ccccc3)o2)oc1NCc1cccnc1,-0.3,.,.,.,?,-7.5
CCOc1ccc(N(CC(=O)NCc2ccccc2)S(=O)(=O)c2ccc(C)cc2)cc1,-0.7,-2.7,3.3%[15.4 µM],?,-1.1%,-11.2
O=C(NCc1ccccn1)c1cc(-c2ccccc2Cl)on1,-0.4,1.6,0.4%,8.2%,0.8%,16.3
COc1ccc(OC)c(CNC(=O)CSc2c3c(nc4cc(Cl)ccc24)CCCC3)c1,1.3,.,.,.,1.2%,18.8
CC(C)OCC1CC(CC(=O)NC(=S)Nc2cccc([N+](=O)[O-])c2)C(=O)O1 (stereo unspecified),-0.7,0.2,9.2%,-5.7%,0.2%,5.7
Cc1nc2cc(C(F)(F)F)ccc2n1CCNc1nc(-c2ccc([N+](=O)[O-])c(Cl)c2)cs1,0.1,-0.1,.,?,0.1%,1.9
Nc1nnc(SCC(=O)Nc2ccc(F)c(Cl)c2)n1-c1ccccc1,-0.3,8.1,12.1%,-1.0%,0.1%,0.1
Cc1ccc(-c2nc(C)c(CCNC(=O)C(=O)Nc3ccc4c(c3)OCO4)s2)cc1,4.7,.,.,.,-0.9%,1.9
O=c1oc2ccccc2cc1-c1cn2cc(Cc3ccccc3F)sc2n1,-0.4,.,.,.,2.6%,-2.0
COc1ccc(CC(=O)OCC(=O)Nc2ccc(OC(F)F)cc2)cc1OC,0.7,.,-17.2%,-5.9%,-1.9%,7.6
Cn1c(C(=O)NCCc2ccsc2)cc2c(=O)n(C)c3ccccc3c21,2.9,7.8,1.4%,-10.8%,3.7%,-3.6
O=C1NCCN1CCNS(=O)(=O)c1ccc2ccccc2c1,-0.5,0.4,-2.1%,1.0%,-2.3%,-12.7
Cc1ccc2c(=O)cc(C(=O)Nc3sc4c(c3C(=O)NCc3cccnc3)CCCC4)oc2c1,-0.5,.,.,.,1.5%,8.4
COc1cc(/C=N\NC(=O)CNC(=O)C(c2ccccc2)c2ccccc2)ccc1O,3.1,0.0,5.3%[15.4 µM],-5.0%,.,-0.5
Cc1cc(-c2nn(-c3ccccc3F)cc2CN2CCN(c3ccncc3)CC2)c(C)s1,1.4,2.2,-0.7%,9.2%,.,4.2
Cc1ccc(S(=O)(=O)NCC(=O)OCc2ccccc2Br)cc1,2.4,-0.3,-6.9%,-15.7%,.,2.5
COc1cccc(/C=C/C(=O)OCC(=O)c2cc(C)n(CC3CCCO3)c2C)c1OC (stereo unspecified),0.8,8.6,-53.6%[inhibitor],?,-28.0%,8.4
CC(=O)Nc1ccc(NC(=O)c2nc(S(=O)(=O)Cc3ccc(F)cc3)ncc2Cl)cc1,1.5,.,.,.,0.8%,-17.8
CCCn1c(=O)c(C(=O)NCc2ccccc2OC)c(O)c2ccccc21,0.6,0.7,20.0%,10.4%,1.0%,9.6
O=c1c(NCc2cccs2)nccn1-c1ccccc1,-0.1,.,.,.,-3.1%,17.8
O=C(Oc1cc(=O)oc2ccccc12)c1ccccc1,.,-0.4,.,2.2%,-2.7%,.
CO/N=C/NC(=O)NOCc1ccc(Cl)cc1Cl,5.5,2.4,-25.3%,2.7%,0.2%,0.1
CCn1c(NC(=O)c2ccc(C)cc2)c2ccccc2nc1=O,-1.6,7.1,-6.4%,-2.3%,-2.0%,13.0
CC(C)(C)NC(=O)COc1ccc(CNCc2cccnc2)cc1,-0.1,-3.7,0.7%[15.4 µM],-3.8%,.,2.8
Cc1nc2cc(Cl)c(Cl)cc2n1CCCO,-0.5,2.3,0.3%[15.4 µM],4.9%,0.4%,9.7
O=C(Cc1cccs1)N=Nc1c(O)[nH]c2ccc(Br)cc12,2.5,1.1,-12.6%[15.4 µM],-11.6%,.,-6.5
O=C(CCc1nc(-c2cccs2)no1)NCc1ccc(F)cc1Cl,-0.6,-0.3,-10.6%,-5.2%,-2.4%,-13.6
Cc1ccc(OCCn2cc(C(=O)O)c3ccccc32)cc1,0.8,-9.1,-4.7%,5.0%,.,5.8
O=C(NC(=S)N1CCN(C/C=C/c2ccccc2)CC1)c1ccc(Cl)nc1,1.6,2.4,-17.2%,-9.0%,0.7%,15.0
CCOC(=O)/C(C#N)=C/NC(=O)NC(C)(C)C,-0.2,1.7,-27.5%,6.5%,-0.3%,2.1
COc1ccc(-c2ccc(C)cc2)cc1C1C2C=CCCC2(C)C(=O)N1Cc1ccccc1 (stereo unspecified),2.2,0.4,.,.,.,8.3
CCCNC(=S)Nc1cccc(C(F)(F)F)c1,0.7,6.6,0.0%,7.7%,-3.2%,-11.3

# Next part
SMILES,TRPML1 ag,Menin-MLL FL inh,gsp agonist,gsp antag,ClpP mod,TRPML1 inh
O=C(CSc1nnc(-c2ccc(Cl)cc2)n1Cc1ccco1)c1cccs1,1.6,1.8,-31.6%[inhibitor],2.0%,-1.9%,8.3
O=C(Nc1ccccc1C(=O)NCc1ccccc1)c1ccccc1,0.0,1.2,-3.3%,-20.3%,-3.2%,-15.9
Cc1cccc(CCNC(=O)C2CCN(S(=O)(=O)c3c(C)noc3C)CC2)c1,-0.2,1.0,-0.9%,1.0%,0.2%,-3.3
COc1ccc(C(CNC(=O)c2ccc(N3CCCC3=O)cc2)N(C)C)cc1 (stereo unspecified),0.4,1.6,3.3%,15.8%,-0.4%,-14.0
O=c1[nH]c2ccccc2[nH]c1=O,.,3.0,9.6%,14.6%,3.8%,.
Cc1ccc(NC(=O)C2SC(=Nc3ccccc3)C(C(=O)Nc3ccc(Cl)cc3)=C2N)cc1 (stereo unspecified),1.1,0.9,-9.5%[15.4 µM],-7.7%,.,-7.3
CCn1cc(/C=C(\NC(=O)c2ccc(C)cc2)C(=O)NCCCN2CCOCC2)c2ccccc21,0.3,-0.8,-52.1%[inhibitor],-19.9%,-1.3%,2.9
CCOc1ncccc1C(=O)OCC(=O)Nc1ccc(C)c(S(=O)(=O)N(C)C)c1,1.5,-2.8,?,-3.9%,.,9.0
O=C(O)CC(C(=O)Nc1ccc(Cl)c(Cl)c1)C1CCCO1 (stereo unspecified),-0.2,-0.1,5.1%,6.4%,1.0%,11.9
CCOC(=O)c1cc2ccccc2nc1C,0.0,1.2,-5.7%,12.5%,2.4%,7.5
